Screening data as filed in PubChem.
FGF22 binding: binders of recombinant human FGF22 by thermal shift. AID 651658. calls only at 9.99 µM. 340,000 compounds, 1.5% hits. SYPRO orange fluorescence; percent of sucrose octasulfate shift, DMSO zero. Q9HCT0;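 active means melting point raised past a set limit in the mean and every replicate; three in four hits are not shown here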
Target sequence (Q9HCT0 whole entry, looked up): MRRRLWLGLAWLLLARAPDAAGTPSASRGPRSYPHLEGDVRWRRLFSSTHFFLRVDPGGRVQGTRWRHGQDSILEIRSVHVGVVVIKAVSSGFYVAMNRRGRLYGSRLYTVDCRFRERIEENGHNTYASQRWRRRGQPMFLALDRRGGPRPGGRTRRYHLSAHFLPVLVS
T cruzi repl: T. cruzi replication inhibition; T. cruzi beta-gal in NIH3T3, luminescence, 90 h; inhibition, % (concentration not given with the values); 300,000 compounds, 1.4% hits; AID 1885;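 active means mean inhibition across valid replicates above about 55%, limit read from the data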;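 further: signal also drops with host cell toxicity which is not excluded here; 0% = plate median of DMSO wells and 100% = zero luminescence signal; higher percent means less beta-gal luminescence so fewer parasites; stock transfer was 50 nL into about 50 µL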
Bfl-1 A1 inh: inhibitors of the anti-apoptotic protein A1, read as caspase activation | MEF A1-2A-BIM cells, Caspase-Glo 3/7 luminescence, 3 h; percent of clofoctol response, vehicle zero | caspase activation, % (test concentration not listed) | 330,000 compounds, 0.066% hits | AID 2462;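 active means over half of replicate activation scores above 10%, or exactly half above 10 with the replicate mean above 10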;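 further: wells of about 30 µL received 50 nL stock; many hits fall short of the cut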
AF4-AF9 inh: blocks AF4 peptide binding to human AF9; inhibition, % at 10 µM; AlphaScreen, biotin-AF4 peptide binding to FLAG-AF9; 350,000 compounds, 0.47% hits; AID 651704; P42568;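 active means every replicate reaching a set inhibition limit, whatever the replicate mean, cut at about 25% in these data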;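 further: 0% = plate neutral control median and 100% = total signal loss; the record names both 10 and 1 µM as test concentration; the first replicate is given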
Target sequence (P42568 whole entry, looked up): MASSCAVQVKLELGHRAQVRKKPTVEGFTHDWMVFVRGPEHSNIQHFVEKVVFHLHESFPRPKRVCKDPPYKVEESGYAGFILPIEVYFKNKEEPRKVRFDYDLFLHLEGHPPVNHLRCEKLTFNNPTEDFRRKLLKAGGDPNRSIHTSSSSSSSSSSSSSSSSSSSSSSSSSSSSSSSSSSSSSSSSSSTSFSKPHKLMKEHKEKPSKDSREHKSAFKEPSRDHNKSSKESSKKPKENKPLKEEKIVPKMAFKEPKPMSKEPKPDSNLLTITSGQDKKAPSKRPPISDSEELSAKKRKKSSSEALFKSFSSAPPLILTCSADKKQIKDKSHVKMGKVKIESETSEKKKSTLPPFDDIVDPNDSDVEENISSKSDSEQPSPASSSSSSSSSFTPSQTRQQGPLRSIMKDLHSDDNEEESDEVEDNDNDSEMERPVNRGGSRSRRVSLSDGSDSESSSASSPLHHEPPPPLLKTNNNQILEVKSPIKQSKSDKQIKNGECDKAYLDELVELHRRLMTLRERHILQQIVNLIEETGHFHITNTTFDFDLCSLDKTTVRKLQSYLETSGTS
rRNA inh HTS: selective bacterial rRNA inhibition in E. coli; E. coli WT GFP vs humanized-ribosome RFP mutants, fluorescence, 24 h; active compounds read low; DMSO median 0, no signal -100; GFP signal change (wild-type ribosome), % (concentration not given with the values); 350,000 compounds, 1.6% hits;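 active means significant combined selectivity score with lowered wild-type GFP, culture density cut under 30%, mutant RFP and density less affected; inactive means any of these conditions unmet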; further: one replicate is shown; some compounds called inactive have numbers as strong as hits
Beta apoptosis: beta cell apoptosis inhibition; INS-1E cytokine-induced death, ATP luminescence, 48 h; percent of positive-control rescue, neutral wells zero; protection from apoptosis, % (test concentration not listed); 300,000 compounds, 0.8% hits;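 active means all replicates at 75% or more, or half of them and the mean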;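 further: 0% = cytokine-treated negative control wells and 100% = positive control rescue; higher means more ATP so stronger rescue from cytokine killing; wells of about 40 µL received 100 nL stock; the first replicate is given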
E coli growth: inhibitors of Escherichia coli growth; 330,000 compounds, 0.21% hits; OD600 absorbance (no concentration beside the values); OD600, 23 h; active compounds read low;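 active means OD600 absorbance below the run mean of sample wells minus 3.6 SD, in any replicate, cut at about 0.56 in these data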;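 further: stock transfer was 300 nL into about 60 µL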
UCH37 DUB inh: blocks the human deubiquitinase UCH37 | Q9Y5K5 | purified proteasome/UCH37, Ub-AMC cleavage fluorescence | inhibition, % (no concentration beside the values) | 330,000 compounds, 0.33% hits;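 active means mean of two replicates above 20%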;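 further: 0% = compound-free wells with enzyme and 100% = wells lacking proteasome; stock transfer was 100 nL into about 20 µL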
Target sequence (Q9Y5K5 whole entry, looked up): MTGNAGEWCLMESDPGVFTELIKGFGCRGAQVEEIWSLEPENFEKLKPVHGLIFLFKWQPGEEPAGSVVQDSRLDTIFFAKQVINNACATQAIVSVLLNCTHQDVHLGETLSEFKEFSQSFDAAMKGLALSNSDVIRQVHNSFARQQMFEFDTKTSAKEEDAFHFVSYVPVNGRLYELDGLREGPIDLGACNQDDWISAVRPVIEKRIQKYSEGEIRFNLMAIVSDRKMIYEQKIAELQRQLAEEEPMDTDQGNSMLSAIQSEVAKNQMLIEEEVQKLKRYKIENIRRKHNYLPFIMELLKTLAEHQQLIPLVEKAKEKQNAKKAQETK
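Schedule: 30 min plus 25 min, room temperature / Material: human UCH37 within purified proteasomes / Technique: AMC fluorescence intensity at 355/460 nm / Buffer or medium: pH 7.4 Tris-HCl (50 mM) with ovalbumin, ATP-MgCl2, DTT / Controls: wells without proteasome as full block, compound-free enzyme plus substrate as uninhibited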
rRNA inh HTS OD600: recorded beside rRNA inh HTS, whose call it bears; OD600 change, %; measured here: OD600 growth;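 optical density of the mix in the first replicate; 0 = DMSO median and -100 = no signal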
rRNA inh HTS RFP: also measured in rRNA inh HTS; calls as there; RFP signal change, %; measured here: RFP humanized mutant strains;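 first replicate; 0 = DMSO median and -100 = no signal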
Starred values were filed as active, the others as inactive; i = inactive; / = no result given; & = joins results of further samples. A portion of the library (hit frequency here may not be typical).

SMILES	FGF22 binding	T cruzi repl	Bfl-1 A1 inh	AF4-AF9 inh	rRNA inh HTS	rRNA inh HTS OD600	rRNA inh HTS RFP	Beta apoptosis	E coli growth	UCH37 DUB inh
Cc1cc(Oc2ccccc2)nc(N2CCOCC2)n1	/	11	0.0	/	/	/	/	3	0.7	0.5
CCOCCCn1c(SCC(=O)N2CCOCC2)nc2ccccc2c1=O	i	2	0.2	-3.7	-2	-5	-3.5	-4	0.66	2.0
CC(=O)c1ccc(N2CCN(C(=O)Nc3cccc(F)c3)CC2)cc1	i	9	1.0	-1.1	-3	-22	-2.4	8	0.67	3.6
CCCn1c(SCC(=O)N2CCCCC2)nc2c1c(=O)n(C)c(=O)n2C	i	-3	-0.7	-0.1	1	-4	-2.2	10	0.71	1.3
Cc1cc(=O)oc(C)c1C(=O)NCC(C)C	/	12	-0.1	/	9	12	0.1	-5	0.68	3.2
O=C(O)c1ccc2cccc(Cl)c2c1O	/	1	-0.1	/	/	/	/	-8	0.7	-53
CSCCC(NC(=O)c1ccccc1)C(=O)Nc1ccncc1 (centres undefined)	i	/	3.0	1.0	6	7	-1.8	-7	0.67	1.2
CCN(CC)C(=O)Oc1ccc(Cl)c2ccccc12	/	24	1.6	/	/	/	/	/	0.66	3.0
O=C(COC(=O)c1ccccc1Cl)NC(=O)NCc1ccccc1	i	9	-0.2	-2.3	-5	-2	6.0	-7	0.67	-1.4
Cc1ccc(C)c(-c2csc(N)c2C(=O)OC(C)C)c1	/	8	1.0	/	/	/	/	6	0.73	6.0
Cc1cc(NC(=O)NC(C)(C(F)(F)F)C(F)(F)F)no1	i	13	0.3	/	10	-1	0.6	-8	0.69	3.0
N#CCCN(C(=O)COC(=O)c1cccc(S(=O)(=O)Nc2ccc([N+](=O)[O-])cc2)c1)c1ccccc1	i	-32	0.2	-1.1	-7	-9	-1.0	-1	0.69	6.9
CCCCCCCN1C/C=C\C(c2ccc(OC)cc2)N(Cc2ccc(F)cc2)C(=O)[C@H]1Cc1ccccc1 (some centres undefined)	/	-7	0.6	/	/	/	/	7	/	1.1
O=S(=O)(C=C(c1ccccc1)c1ccccc1)c1ccccc1	/	0	-0.8	/	/	/	/	1	0.75	0.9
COc1ccccc1N(CC(=O)NC1CCCCC1)C(=O)CCC(=O)Nc1nccs1	i	3	1.2	-0.1	1	8	-1.4	-7	0.64	-0.4
CCOC(=O)C(C)Sc1cc(CS(=O)(=O)c2ccccc2)nc(-c2ccccc2)n1 (centres undefined)	/	18	0.3	/	/	/	/	-2	0.76	1.7
O=C(NCc1ccc2c(c1)OCO2)C12CC3CC(CC(C3)C1)C2	/	14	0.7	/	/	/	/	-4	0.67	-1.0
CC(C)(C)N(Cc1ccccc1)C(=O)COC(=O)C1CC(=O)N(Cc2ccccc2)C1 (centres undefined)	i	/	/	2.1	-10	-12	0.2	/	0.7	2.3
Cc1ccc(C2=Nc3ccccc3N=C(c3ccc([N+](=O)[O-])cc3)C2)c(O)c1	/	-2	0.3	/	/	/	/	4	0.71	3.5
Cc1c([N+](=O)[O-])cc(C(=O)Nc2ccc(NC(=O)c3ccco3)cc2)cc1[N+](=O)[O-]	i	30	0.9	-1.5	2	1	0.1	/	0.69	6.2
Cc1c(C(=O)N2CCCC2)sc(NC(=O)c2ccco2)c1C#N	/	-2	1.0	/	/	/	/	-3	0.69	5.6
Cc1ccc(CC(CC(=O)Nc2cccc(C(F)(F)F)c2)C(=O)O)cc1 (centres undefined)	i	-4	0.1	-3.3	-16	-16	-1.6	-8	0.64	1.4
C=CCNC(=O)NC(=O)COC(=O)c1cccnc1SC	/	-7	-0.5	/	/	/	/	-4	0.67	4.2
O=C(NCc1ccccc1)C1=C[C@@H](c2ccc3c(c2)OCO3)C[C@@H](OCCCCO)O1	i	7	0.1	-1.5&2.8	-8	-7	-0.6	1	/	-2.1
COC(=O)c1[nH]c2ccccc2c1NC(=O)c1ccccc1F	i	5	-0.8	-2.1	2	5	0.0	4	0.62	-7.7

Among those listed so far, these contain a CF3 group.
SMILES	FGF22 binding	T cruzi repl	Bfl-1 A1 inh	AF4-AF9 inh	rRNA inh HTS	rRNA inh HTS OD600	rRNA inh HTS RFP	Beta apoptosis	E coli growth	UCH37 DUB inh
Cc1cc(NC(=O)NC(C)(C(F)(F)F)C(F)(F)F)no1	i	13	0.3	/	10	-1	0.6	-8	0.69	3.0
Cc1ccc(CC(CC(=O)Nc2cccc(C(F)(F)F)c2)C(=O)O)cc1 (centres undefined)	i	-4	0.1	-3.3	-16	-16	-1.6	-8	0.64	1.4

(list continues)
SMILES	FGF22 binding	T cruzi repl	Bfl-1 A1 inh	AF4-AF9 inh	rRNA inh HTS	rRNA inh HTS OD600	rRNA inh HTS RFP	Beta apoptosis	E coli growth	UCH37 DUB inh
Cc1cccc(/C=N/NC(=O)NC23CC4CC(CC(C4)C2)C3)n1	i	9	0.6	3.6	-33	-39	-4.5	-1	/	/
CCOc1ccc(N(CC(=O)NC2CCC(C)CC2)S(=O)(=O)c2c(C)noc2C)cc1 (centres undefined)	i	25	0.3	-2.8	-1	5	1.8	5	0.69	4.0
COc1cc(CN2CCN(Cc3ccc(SC)cc3)CC2)cc(OC)c1O	i	24	-0.6	3.4	12	6	-1.1	-5	0.71	3.3
Cc1ccc(CNC(=O)CN2CCCC(C)C2)cc1 (centres undefined)	/	-8	0.3	/	-1	4	-1.4	-8	0.72	3.6
CN(C(=O)CSc1nnc(Cc2cccs2)n1C1CC1)C1CCS(=O)(=O)C1 (centres undefined)	i	/	/	2.2	10	12	1.9	/	0.63	2.4
c1ccc(N=C(c2cccs2)N2CCOCC2)cc1	/	-19	-0.6	/	/	/	/	1	0.72	1.5
CCC(NC(=O)NNC(N)=S)(C(F)(F)F)C(F)(F)F	i	1	-0.1	-3.8	1	-11	-0.7	-2	0.68	2.5
Cc1ccc(S(=O)(=O)NCCc2c[nH]c3ccccc23)cc1	i	-15	-1.1	-2.5	-14	-19	3.8	-4	0.61	3.5
Cc1[nH]nc(N)c1N=Nc1ccc(Br)cc1	i	-25	-1.5	6.7	-48	-74	-12	/	0.66	7.8
COc1cc(/C=N/NS(=O)(=O)c2ccc3ccccc3c2)ccc1OCc1ccc(C(=O)O)cc1	/	-14	-6.5	-7.0	-23*	-17*	-2.4*	2	/	/
O=C(Nc1ccccc1)c1[nH]ncc1[N+](=O)[O-]	/	-6	-0.7	/	/	/	/	-2	0.71	4.0
Cc1ccc(S(=O)(=O)N/N=C2/CC(=O)CC(C)(C)C2)cc1[N+](=O)[O-]	i	3	-0.2	-17	9	7	-1.0	-1	/	/
Cc1c(C(=O)N2CCCCC2)c(S(=O)(=O)NCc2ccccc2Cl)c(C)n1C	i	-4	-0.3	2.5	5	-9	1.5	-17	0.69	1.1
CN(C(=O)c1cccc(NC(=O)Cc2ccc(NC(=O)C3CCCN(C(=O)C4CCCCC4)C3)cc2)c1)C1CCCCC1 (centres undefined)	/	/	/	-5.5	2	5	1.0	/	0.65	1.7
COCCCNC(=O)CSc1nc2ccccc2c(=O)n1CCCN1CCCCC1	i	-3	0.8	0.0	8	9	-1.2	/	0.67	2.3
COc1ccccc1CNC(=O)COC(=O)c1c(C)nn(-c2ccccc2)c1Cl	i	-2	-0.8	-1.6	20	19	3.9	-4	0.69	0.4
CC(=O)c1cccc(NC(=O)C(C)OC(=O)CCc2nc3ccccc3c(=O)[nH]2)c1 (centres undefined)	i	/	-0.3	-1.2	4	3	-0.1	-3	0.71	3.8
CC(=O)Nc1cccc(C(=O)NC2CCCc3c2cnn3-c2ccc(C(C)(C)C)cc2)c1 (centres undefined)	i	32	0.2	3.9	-7	-27	-5.4	10	0.69	1.1
CC(=O)c1ccc(S(=O)(=O)Nc2cccc(-c3cn4c(n3)SCC4)c2)cc1	i	-3	0.5	0.5	-5	-4	1.6	-1	0.67	2.2
O=C(c1ncn[nH]1)N1CCN(c2nc(-c3ccccc3)cs2)CC1	/	-5	0.3	/	/	/	/	-1	0.76	4.2
COC(=O)c1csc2c(C(F)(F)F)cc(N3CCN(C(=O)Nc4ccccc4)CC3)nc12	i	-1	1.1	/	6	0	2.1	11	0.64	-124
CC(C)c1ccc(OCC(=O)NC2=NCCS2)cc1	i	-13	-0.2	-1.8	/	/	/	-9	0.7	6.8
COc1ccc(CNC(=O)Nc2cc(C)cc(C)c2)cc1	i	-2	-3.8	7.4	5	6	0.9	-2	0.68	-0.2
CCN(CC)c1ccc(C=NN2CCCCCC2)cc1	i	/	/	2.7	-4	5	8.3	/	0.71	0.2
Cc1cc(Br)ccc1OCCOCCN1CCCC1	i	41	-0.7	0.9	4	2	-1.0	/	0.65	2.3

Going on with the list.
SMILES	FGF22 binding	T cruzi repl	Bfl-1 A1 inh	AF4-AF9 inh	rRNA inh HTS	rRNA inh HTS OD600	rRNA inh HTS RFP	Beta apoptosis	E coli growth	UCH37 DUB inh
O=C(Nc1ccc(Br)cc1)c1cnccn1	/	3	-4.5	/	/	/	/	1	0.59	0.4
CC1CC2C3CCC4=CC(=O)CCC4(C)C3CCC2(C)C1(O)C(=O)CO (centres undefined)	i	/	/	1.7	-1	-34	-6.1	/	0.67	5.3
O=S(=O)(c1ccc(Br)cc1)c1nc(-c2ccccc2)oc1NCc1cccnc1	/	21	-0.2	/	/	/	/	-5	0.7	0.7
COC(=O)C1(O)CC(CC(C)C)=NN1C(=O)c1ccccc1 (centres undefined)	/	-24	0.1	/	/	/	/	-3	0.73	0.8
O=C(NCC1CCCO1)NC1(C(F)(F)F)Oc2ccccc2O1 (centres undefined)	/	-47	0.3	/	/	/	/	1	0.63	-1.3
Cc1ccc(C(C)C)cc1OCC(=O)Nc1nnc(C2CC2)s1	i	/	1.0	-1.7	14	14	-0.6	8	0.67	-0.9
Cc1ccc(-c2csc(NC(=O)C3=COCCO3)n2)cc1C	i	72*	-1.5	4.0	-32	-55	18	98*	0.59	-3.8
COc1ccccc1CNS(=O)(=O)c1ccc2c(c1)CC(C)N2C(=O)C1CCC1 (centres undefined)	i	-7	0.3	0.0	-6	-23	-2.9	29	0.71	4.3
CSc1ccc(CN(C)C(=O)c2cc(Cl)c3c(c2)OCCO3)cc1	i	-6	-0.2	-0.6	1	-19	0.8	-2	0.69	1.3
CCN1C(=O)N(C)[C@@H](c2ccccc2)C(C(C)=O)=C1C	i	-13	0.5	-1.2	19	9	2.3	-7	/	2.2
COc1ccc(NC(=O)COc2ccccc2Cc2ccccc2)cc1S(=O)(=O)N1CCOCC1	i	/	/	0.5	-23	-29	-3.1	/	0.67	-1.6
S=c1[nH]nc(-c2ccco2)n1/N=C/c1ccccc1	i	/	0.3	-0.3	6	12	1.2	/	/	/
COC(=O)c1c(C)c[nH]c1C	i	-2	0.4	-2.8	8	13	-1.8	-3	0.67	1.6
COc1ccc(CCNC(=O)CSc2nnc(C(C)N(C)C)n2Cc2ccccc2)cc1OC (centres undefined)	i	2	0.4	-0.9	10	1	1.6	-5	0.73	-0.9
COc1ccc(C(N)=S)cc1	/	-7	0.4	/	/	/	/	-6	0.7	5.9
OCc1ccccc1OCCCN1CCC(Cc2ccccc2)CC1	i	24	1.8	9.1	-7	-22	4.3	-3	0.63	0.9
